Assay outcomes: PubChem, several laboratories
VLA-4 inh – inhibition in a human VLA-4 binding assay. P13612. VLA-4 expressing cells, ligand binding flow cytometry. inhibition, % (about 7 µM as worked out from the volumes in the protocol). 330,000 compounds, 0.2% hits. AID 2557; in the data active = inhibition above about 50%
PP5 inh – inhibitors of human protein phosphatase 5 (PP5) | 320,000 compounds, 0.18% hits | inhibition, % at 6.7 µM | AID 1987 | purified PP5c, OMFP substrate fluorescence | P53041;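 active = inhibition above the campaign's mean inhibition across all tested compounds plus 3 SD, cut at about 9.5% in these data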;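 note: 0% = DMSO only and 100% = 100 µM cantharidin control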
Target sequence (P53041 whole entry, looked up): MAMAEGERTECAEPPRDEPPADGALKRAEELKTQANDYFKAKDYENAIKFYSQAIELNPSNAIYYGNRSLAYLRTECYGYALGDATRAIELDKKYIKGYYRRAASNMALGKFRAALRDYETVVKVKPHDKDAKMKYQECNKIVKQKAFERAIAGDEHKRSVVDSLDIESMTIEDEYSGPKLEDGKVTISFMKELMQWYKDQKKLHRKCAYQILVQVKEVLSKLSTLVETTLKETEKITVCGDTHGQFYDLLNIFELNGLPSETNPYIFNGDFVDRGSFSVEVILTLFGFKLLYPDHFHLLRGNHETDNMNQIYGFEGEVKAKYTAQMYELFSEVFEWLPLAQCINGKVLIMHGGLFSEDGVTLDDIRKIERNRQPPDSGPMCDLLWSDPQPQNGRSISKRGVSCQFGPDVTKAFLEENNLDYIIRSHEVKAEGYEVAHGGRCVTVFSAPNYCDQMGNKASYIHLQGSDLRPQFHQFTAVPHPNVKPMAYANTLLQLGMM
GRK2 inh – blocks RNA aptamer binding to human GRK2; P25098; bead flow cytometry, FAM-aptamer displacement from GRK2; inhibition of aptamer binding, % at 10 µM; 330,000 compounds, 0.59% hits; AID 488847;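 active = inhibition of aptamer binding above 40%, roughly 3 SD of noise, on plates passing a quality check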;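 note: median bead fluorescence of bound FAM aptamer so fluorescent compounds give negative values; no value below 0 was filed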
JMJD2C inh – human JMJD2C demethylase inhibition; Q9H3R0; GST-JMJD2C(1-420) H3K9me3 demethylation, DELFIA europium; inhibition, % at 2.35 µM; 330,000 compounds, 0.069% hits; AID 2099;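 active = more than half of a compound's replicate wells show inhibition beyond 50%, single wells judged on their own value; inconclusive = some, but no more than half, of replicates pass 50% inhibition; inactive = no replicate passes 50% inhibition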;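 note: signal counts dimethyl H3K9 product captured on neutravidin plate; 0% = median of DMSO wells and 100% = 0.3 times that DMSO median; strong numbers were not always called active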
PP1 counter – counter-screen for PP5 inhibitors: inhibitors of human PP1-alpha; 320,000 compounds, 0.9% hits; P62136; AID 2235; inhibition, % at 6.7 µM; purified PP1alpha, OMFP fluorescence;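 active = inhibition above the mean inhibition of all tested compounds plus 3 SD, computed separately for each screening campaign, cut at about 15% in these data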
Numbers without * were called inactive; ? = inconclusive; · = no result given; & = joins results of further samples.

Codes: A = VLA-4 inh; B = PP5 inh; C = GRK2 inh; D = JMJD2C inh; E = PP1 counter
> CCCCC(CC)COC(=O)CCCCC(=O)OCC(CC)CCCC (stereo not drawn)
  A: 13.1; B: 1.9; C: 3.0; D: -11.0; E: -0.8
> CCNC(=O)C1CC(=O)N(CC)C(=Nc2cc(Cl)c(O)c(Cl)c2)S1 (stereo not drawn)
  A: -0.6; B: 2.1; C: 0.0; D: -22.6; E: -2.7
> O=C(O)Cn1nc(C(F)(F)F)c2c1CCCCC2
  A: 39.1; B: -0.6; C: 0.0; D: -292.0; E: -0.6
> CC1(C)[C@H](C(=O)O)N2C(=O)C[C@H]2S1(=O)=O
  A: 44.4; B: 2.9; C: 0.0; D: -6.1; E: -7.5
> COc1ccc(/C(N)=N/OC(=O)CSc2ccccc2)cc1
  A: 15.6; B: 1.3; C: 2.0; D: -4.3; E: -2.5
> CC(=O)Oc1ccc(-c2cc3ccc(OC(C)=O)cc3oc2=O)cc1
  A: 6.4; B: -1.2; C: ·; D: -2.9; E: -2.8
> Cc1nnc(SCC2=C(C(=O)O)N3C(=O)[C@@H](NC(=O)Cn4cnnn4)[C@H]3SC2)s1
  A: 1.1&17.1; B: 3.6&2.6; C: 1.0&1.0; D: ?; E: -0.8&4.0
> O=c1[nH]c(=O)n([C@H]2C[C@H](O)[C@@H](CO)O2)cc1C(F)(F)F
  A: -2.2; B: -0.1; C: 0.0; D: -2.6; E: 2.8
> CCCCc1oc2ccccc2c1C(=O)c1cc(I)c(OCCN(CC)CC)c(I)c1
  A: -5.0; B: 0.1; C: 0.0; D: -9.6; E: 10.3
> O=C(O)[C@@H](O)[C@H](O)C(=O)O
  A: 17.9; B: 10.6*; C: 0.0; D: -5.1; E: 2.0
> Cc1ncc(C[n+]2csc(CCO)c2C)c(N)n1
  A: 11.0&5.3; B: -0.9&-1.8; C: 0.0&2.0; D: -15.7&2.9; E: -2.8&-1.8
> CC12CCC3c4ccc(O)cc4CCC3C1CC(O)C2O (stereo not drawn)
  A: -10.9; B: 1.8; C: 0.0; D: -39.4; E: 0.9
> Cc1nc(=O)c(-c2ccccc2)c(C)n1-c1ccc(O)c(C(=O)O)c1
  A: -6.5; B: -0.6; C: 3.0; D: -6.1; E: -0.6
> Cc1ccc2c(CC(=O)N3CCN(S(=O)(=O)c4ccc5c(c4)OCCO5)CC3)coc2c1
  A: 12.2; B: 4.1; C: 3.0; D: -11.1; E: -1.2
> CCOC(=O)C1=C(C)NC(C)=C(C(=O)OC)C1c1cccc(Cl)c1Cl (stereo not drawn)
  A: 9.0; B: 5.4; C: 0.0; D: 3.0; E: 6.8

Part of the list above, reformatted:
compound: CCCCC(CC)COC(=O)CCCCC(=O)OCC(CC)CCCC (stereo not drawn)
  VLA-4 inh = 13.1	PP5 inh = 1.9	GRK2 inh = 3.0	JMJD2C inh = -11.0	PP1 counter = -0.8
compound: CCNC(=O)C1CC(=O)N(CC)C(=Nc2cc(Cl)c(O)c(Cl)c2)S1 (stereo not drawn)
  VLA-4 inh = -0.6	PP5 inh = 2.1	GRK2 inh = 0.0	JMJD2C inh = -22.6	PP1 counter = -2.7

Back to the main list; the 6 compounds before the break are reprinted first.
Codes: A = VLA-4 inh; B = PP5 inh; C = GRK2 inh; D = JMJD2C inh; E = PP1 counter
> O=C(O)[C@@H](O)[C@H](O)C(=O)O
  A: 17.9; B: 10.6*; C: 0.0; D: -5.1; E: 2.0
> Cc1ncc(C[n+]2csc(CCO)c2C)c(N)n1
  A: 11.0&5.3; B: -0.9&-1.8; C: 0.0&2.0; D: -15.7&2.9; E: -2.8&-1.8
> CC12CCC3c4ccc(O)cc4CCC3C1CC(O)C2O (stereo not drawn)
  A: -10.9; B: 1.8; C: 0.0; D: -39.4; E: 0.9
> Cc1nc(=O)c(-c2ccccc2)c(C)n1-c1ccc(O)c(C(=O)O)c1
  A: -6.5; B: -0.6; C: 3.0; D: -6.1; E: -0.6
> Cc1ccc2c(CC(=O)N3CCN(S(=O)(=O)c4ccc5c(c4)OCCO5)CC3)coc2c1
  A: 12.2; B: 4.1; C: 3.0; D: -11.1; E: -1.2
> CCOC(=O)C1=C(C)NC(C)=C(C(=O)OC)C1c1cccc(Cl)c1Cl (stereo not drawn)
  A: 9.0; B: 5.4; C: 0.0; D: 3.0; E: 6.8
> O=C(O)COCCN1CCN(C(c2ccccc2)c2ccc(Cl)cc2)CC1 (stereo not drawn)
  A: 1.6; B: 1.4; C: 4.0; D: 0.9; E: -2.7
> C[C@]12CC[C@@H]3c4ccc(O)cc4CC[C@H]3[C@@H]1C[C@@H](O)[C@@H]2O
  A: 26.9; B: -0.8; C: 2.0; D: -13.1; E: 0.6
> O=C(O)c1cccnc1
  A: 43.0; B: 2.7; C: 0.0; D: -1.8; E: -4.4
> COc1ccc(C(=O)OCC(=O)Nc2ncc([N+](=O)[O-])s2)cc1OC
  A: 1.5; B: 2.6; C: 16.0; D: -12.5; E: 6.1
> O=C(CSc1ncnc2ccccc12)NCc1ccc2c(c1)OCO2
  A: -6.3; B: -2.9; C: 1.0; D: -13.0; E: -7.6
> O=S(=O)(c1ccc2nc(SCc3cccc(Cl)c3)[nH]c2c1)N1CCOCC1
  A: 25.9; B: 4.2; C: 1.0; D: -3.3; E: -0.6
> Cn1ncc(Br)c1C(=O)O
  A: -3.3; B: -0.2; C: 3.0; D: 2.8; E: -1.4
> c1ccc2ccccc2c1
  A: 6.3; B: -1.3; C: 0.0; D: 1.6; E: -3.0

Not all compounds are listed; rates above refer to the full screens.
